Screening data (PubChem BioAssay)
Arbovirus inh – arbovirus infection inhibition | arbovirus infection cell-based antiviral screen | inhibition, % at 10 µM | actives 0.37% (n = 200,000) | AID 1251;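 active = inhibition from about 30%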;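 note: bluetongue infection of BSR cells; cell survival read as ATP light after 72 h; 0% = infected wells without compound and 100% = uninfected wells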
RecA intein inh – blocks M. tuberculosis RecA intein splicing. cell-free RecA intein splicing, fluorescence. inhibition, %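 (about 9 µM by stock and volumes)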. actives 0.75% (n = 290,000). AID 2221; in the data active = inhibition above about 30%; inconclusive = no clear call, values can overlap the other calls;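 note: 0% = vehicle wells and 100% = reference inhibitor control wells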
Target sequence (P9WHJ3 whole entry, looked up): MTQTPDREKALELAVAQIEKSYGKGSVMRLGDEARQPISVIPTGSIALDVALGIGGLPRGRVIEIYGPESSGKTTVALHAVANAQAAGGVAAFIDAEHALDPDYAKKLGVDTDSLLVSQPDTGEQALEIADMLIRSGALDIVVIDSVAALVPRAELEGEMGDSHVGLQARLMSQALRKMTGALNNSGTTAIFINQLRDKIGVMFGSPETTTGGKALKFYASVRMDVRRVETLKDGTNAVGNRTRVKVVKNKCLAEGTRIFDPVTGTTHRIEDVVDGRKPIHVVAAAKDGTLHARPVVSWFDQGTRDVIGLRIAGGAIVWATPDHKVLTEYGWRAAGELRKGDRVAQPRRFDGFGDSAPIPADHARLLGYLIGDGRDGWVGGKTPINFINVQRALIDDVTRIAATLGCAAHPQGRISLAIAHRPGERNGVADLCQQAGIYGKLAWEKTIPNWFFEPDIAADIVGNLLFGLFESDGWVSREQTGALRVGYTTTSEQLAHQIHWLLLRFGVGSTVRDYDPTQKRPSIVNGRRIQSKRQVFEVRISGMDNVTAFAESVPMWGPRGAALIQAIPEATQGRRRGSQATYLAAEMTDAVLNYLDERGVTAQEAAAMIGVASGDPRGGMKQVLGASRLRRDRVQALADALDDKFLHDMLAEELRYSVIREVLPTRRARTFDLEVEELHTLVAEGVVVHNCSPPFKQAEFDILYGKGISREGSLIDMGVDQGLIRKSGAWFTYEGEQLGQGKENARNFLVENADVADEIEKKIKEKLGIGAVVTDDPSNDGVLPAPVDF
Mtb betalactam – beta-lactam sensitization of Mtb H37Rv; M. tuberculosis H37Rv growth with meropenem, percent inhibition; hits of this screen are not shown here; inhibition, % at 25 µM; actives 0.27% (n = 330,000); AID 434955;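 active = about 74% or more and at least 40 points above the plate without the antibiotic, then above 30% in a dose series; inconclusive = first-round hits that could not be retested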;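 note: growth measured after seven days incubation then overnight dye step; 0% = bacteria only wells and 100% = bacteria with antibiotic; twin plates without the antibiotic show which effects depend on it; some results filed as inactive read as strong as hits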
YopH inh – blocks Yersinia enterocolitica YopH tyrosine phosphatase; fluorescence Ex485/Em525; inhibition, %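 (about 10 µM by stock and volumes)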; actives 0.16% (n = 140,000); AID 898;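 active = inhibition of 50% or more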;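 note: controls were vehicle for no effect and minimum signal wells for full effect; inactives centre near -20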
Mtb H37Rv – M. tuberculosis H37Rv growth inhibitors, H37Rv strain (AID 1626); M. tuberculosis H37Rv growth inhibition; higher % means a stronger effect; one-dose inhibition, % at 10 µM; IC50 in µM for titrated hits; actives 0.95% (n = 220,000);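 active = confirmed in a dose series; inconclusive = inhibition above 80% but not taken into the dose series; inactive = below 80% or under 30% at every dose of the series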;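 note: bacteria incubated seven days before Alamar blue readout; 0% = bacteria only wells and 100% = bacteria with antibiotic wells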
Arbovirus inh repeat – recorded beside Arbovirus inh, whose call it bears; inhibition, %; measured here: 10K subset replicate screen; many hits read low in the repeat;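 first of two repeat runs on a subset; 0% = infected and 100% = uninfected wells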
Starred values were filed as active, the others as inactive; ? = inconclusive; / = no result given. The list is partial; the hit share may differ from the screen's.

SMILES	Arbovirus inh	RecA intein inh	Mtb betalactam	YopH inh	Mtb H37Rv	others
Cc1ccc(S(=O)(=O)N(CC(=O)N2CCC(C(N)=O)CC2)Cc2ccc(F)cc2)cc1	7	0.3	1	18	-1%	Arbovirus inh repeat=1
CCn1c(SCC(=O)Nc2ccc(C(C)=O)cc2)nc2ccccc21	-5	-0.8	10	2	-2%
O=C(Nc1nnc(C2=COCCO2)o1)c1cccc([N+](=O)[O-])c1	/	-1.0	1	/	/
Cc1cc(C(=O)Nc2ccc(Cl)cc2)on1	/	-2.6	3	/	/
Oc1ccc(N2CCN(c3nnnn3-c3ccccc3)CC2)cc1	-23	-9.4	-4	/	-3%
O=C(O)CNS(=O)(=O)c1ccc2[nH]c(=O)c(=O)[nH]c2c1	1	0.0	8	/	-2%
Cc1cccc(-c2c3c(=O)n(C)c(=O)n(C)c3cn2CC2CCCO2)c1 (centres undefined)	0	4.8	1	0	-6%
CNC(=O)C1CC(=O)N(c2ccc(OCC(=O)NCc3ccccc3)cc2)C1 (centres undefined)	/	3.2	2	/	/
O=C1NN(c2ccccc2)C(=O)/C1=C\c1coc2ccc(O)cc2c1=O	/	-14	67	/	1%
O=C(OCC1CC(c2ccccn2)=NO1)c1ccc(Br)cc1 (centres undefined)	-2	-5.5	92	17	71%
COc1cccc(-n2cnc3sc(-c4ccccc4)cc3c2=O)c1	/	1.3	2	/	/
N#C/C(=N\Nc1ccc([N+](=O)[O-])cc1)C(=N)N1CCOCC1	/	2.6	1	/	-14%
O=C(CNC(=O)c1ccccc1F)NCCCN1CCCC1=O	/	-5.0	-4	/	/
Cc1c(C(=O)Nc2ccccc2)c2ccc(C(F)(F)F)cc2n1O	/	-3.3	99	/	/
CCOC(=O)C1(C)NC(c2ccc(N(C)C)cc2)C2C(=O)N(c3ccc(OC)cc3)C(=O)C21 (centres undefined)	0	-1.8	-4	-24	1%
Cc1onc(-c2c(F)cccc2Cl)c1C(=O)Nc1sc2c(c1C#N)CCC(C(C)(C)C)C2 (centres undefined)	-8	-4.1	-1	-34	0%
O=C1CC(c2cc(Br)ccc2F)c2cc3c(cc2N1)CCC3 (centres undefined)	-22	-1.1	5	2	0%
CCOC(=O)Cn1c(-c2ccccn2)nc2ccccc21	-1	-0.8	36	-11	-3%
Fc1ccc(-c2csc(-c3ccc(C4SCCS4)cc3)n2)cc1F	/	1.8	2	/	4%
COc1ccc2cc(C(N)=O)c(=Nc3ccc(C)cc3)oc2c1	-1	-0.7	-14	/	-5%
O=C(Nc1ccccc1)NC1(C(=O)N2CCN(C(=O)c3ccco3)CC2)CCCCC1	2	1.1	-9	-29	-6%
COc1ccc(-c2csc(NC(=O)c3cc(C)on3)c2C#N)cc1OC	-13	-2.9	15	-1	-1%
O=C(c1cc(-c2ccccc2)on1)N1CCN(c2ccccc2)CC1	/	0.7	10	/	/
OCc1ccccc1N=Cc1cccnc1	/	-0.3	-5	/	/
COc1ccc(C2CC(=O)c3c(O)cc(O)cc3O2)c(CC=C(C)C)c1OC (centres undefined)	/	/	0	/	-7%

Additional results follow.
SMILES	Arbovirus inh	RecA intein inh	Mtb betalactam	YopH inh	Mtb H37Rv	others
O=C1NC(=Nc2ccccc2)/C(=C/c2ccco2)S1	-6	5.5	8	5	-8%
Cc1ccc(S(=O)(=O)C2(C(=O)Nc3nccs3)CC2)cc1	11	/	-3	-9	5%
CCOC(=O)C1CCCN(S(=O)(=O)c2cc(Br)cc3c2N(C(C)=O)CC3)C1 (centres undefined)	/	-5.4	-5	/	/
CCNC(=S)N1CCN(CCN=CC2=C(O)CC(C)(C)CC2=O)CC1	/	-2.2	-5	/	7%
CN1CCN(C(=O)/C(=C/c2cn(C)c3ccccc23)NC(=O)c2ccccc2)CC1	/	-1.5	6	/	/
CCOC(=O)c1sc(NC(=O)C2CCC2)cc1C	-9	0.7	-2	/	7%
CCn1cc(C(=O)N2CCCC(CO)(Cc3ccccc3C)C2)cn1 (centres undefined)	/	-0.5	-1	/	/
COc1ccc(-c2cc3ccc(OCC(C)=O)cc3oc2=O)cc1	/	-15	7	/	/
O=S(=O)(c1ccc(Cl)nc1)N1CCN(Cc2ccc3c(c2)OCO3)CC1	0	1.9	-6	1	2%
CCOC(=O)c1sc(N)c(C#N)c1CSc1nnc(C2CC2)n1N	-1	-2.2	-4	-4	-3%
O=C(ON=C1CCN(S(=O)(=O)c2ccccc2)CC1)c1cccc(Cl)c1	11	4.7	6	-34	-2%
Cc1cc(=O)oc2cc(OCC(=O)N3CCN(c4ccc(F)cc4)CC3)c(Cl)cc12	/	-0.4	0	/	/
CN(C)C(=O)Oc1ccc(NC(=O)N2CCOCC2)cc1	/	0.1	-2	/	/
O=C(CCC1CCCC1)Nc1ccc(OCC(=O)N2CCOCC2)cc1	3	2.0	-15	-3	0%
O=[N+]([O-])c1ccccc1/C=N/N1CCN(Cc2ccccc2)CC1	/	1.2	6	/	/
O=C(CN1CCCCCC1)N/N=C/c1ccc(Cl)c(Cl)c1	4	1.1	-3	-15	6%
CCn1ncc(NC(=O)Nc2cccc(C(F)(F)F)c2)c1C(N)=O	5	0.7	-7	-27	-4%
CCn1c(O)c(/C=C2\C=NN=C2c2ccc(C)cc2)sc1=S	-1	0.5	1	-18	-1%
COc1cc(S(=O)(=O)Nc2cccc(C)c2)ccc1NC(=O)c1ccncc1	-15	3.6	4	-18	9%
N#Cc1c(N2CCCC2)nsc1-c1ccccc1	/	-5.0	0	/	/
CCN(CC)CCNC(=O)CCc1c(C)nc2c(c(C)nn2-c2ccc(C)cc2)c1C	/	-1.3	0	/	/
O=C(Nc1nnc(C2=COCCO2)o1)c1ccc(Br)cc1	/	1.0	94	/	/
O=[N+]([O-])c1ccc(S(=O)(=O)Nc2nnc(C3CCCCC3)s2)cc1	/	0.3	9	/	/
Cc1nc(NS(=O)(=O)c2ccccc2)sc1C(=O)NNS(=O)(=O)c1ccccc1	/	-2.0	19	/	/
O=C1c2ccccc2C(=O)C1c1ccc2ccccc2n1	-1	-0.8	-6	-5	-1%

Further results follow:
SMILES	Arbovirus inh	RecA intein inh	Mtb betalactam	YopH inh	Mtb H37Rv	others
Oc1ccc(-[n+]2c(-c3ccccc3)cc(-c3ccccc3)cc2-c2ccccc2)cc1	/	11	99	/	/
CCN(c1ccccc1)S(=O)(=O)c1ccc(Cl)c(NC(=O)COC(=O)c2cccc(OC)c2O)c1	-9	-0.6	3	-13	2%
S=C(NCc1ccc2c(c1)OCO2)NCc1ccc2c(c1)OCO2	-2	-1.4	8	-26	17%
O=C(CCCCCn1c(=O)[nH]c2ccsc2c1=O)N1CCCCC1	8	-1.1	-7	-23	-5%	Arbovirus inh repeat=2
CS(=O)(=O)N1CCC(Oc2ccccc2C(=O)NC(C2CC2)C2CC2)CC1	-2	1.2	-1	/	-7%
COc1ccc(N(C(C)C(=O)N/N=C/c2cc(Br)c(C)o2)S(C)(=O)=O)cc1 (centres undefined)	-3	-1.3	-3	/	-3%
O=C(Nc1cc(S(=O)(=O)N2CCOCC2)ccc1N1CCOCC1)c1cc2c(s1)CCC2	/	-1.6	-5	/	-9%
CCCn1nnnc1NCc1ccccc1F	/	-1.5	4	/	/
O=C(Cn1c2ccccc2c2nc3n(c(=O)c21)CCS3)Nc1ccccc1	/	1.3	-1	/	/
Cc1ccccc1NC(=O)CN1C(=O)N/C(=C\c2ccccc2OCc2ccc(C(=O)O)cc2)C1=O	/	-3.2	1	/	/
CCC(c1nnnn1Cc1ccc(F)cc1)N1CCN(C2CCCCC2)CC1 (centres undefined)	-4	7.1	1	-17	-9%
CCN(CC)c1nc(C)c(C(=S)Nc2cc([N+](=O)[O-])ccc2Cl)s1	-1	4.8	-5	/	6%
O=C(NCCN1CCOCC1)/C(=C\c1ccc(Br)cc1)NC(=O)c1cccs1	8	-1.1	4	-13	-8%
S=C(NCCc1c[nH]c2ccccc12)NC1CCCC1	4	-0.8	-6	/	4%
COc1ccc(Cl)cc1N(C(=O)c1ccco1)C(C(=O)NC1CCCC1)c1ccco1 (centres undefined)	/	4.1	-12	/	/
c1cn2cc(CSC3CCCCC3)nc2s1	3	-2.2	-4	-13	-3%
CS(=O)(=O)c1ccccc1C(=O)Nc1cc(Cl)ccc1-n1cncn1	/	0.8	-10	/	/
Cc1ccc([N+](=O)[O-])cc1S(=O)(=O)N1CCCN(C)CC1	/	-0.1	1	/	/
Cc1n[nH]c(=S)n1Cc1ccccc1	/	-2.3	-1	/	2%
O=C(CN1C(=O)c2ccccc2C1=O)Nc1cccc(Cl)c1	/	0.5	-3	/	/
O=C1c2cnc3nc(SCc4cccc(Cl)c4)nn3c2CC2c3ccccc3CCN12 (centres undefined)	2	-9.3	1	-39	2%
S=C1NC[C@H](Cc2ccccc2)N1CCc1cccc2ccccc12	/	11	-2	/	5%
Cc1nc2ccccc2c(=O)n1-c1ccc(Cl)cc1Cl	/	2.6	5	/	/
CCCCN=C1NN=C(c2cc3ccccc3o2)CS1	-11	2.2	46	-18	6%
O=C1c2ccccc2NC(c2cccc(O)c2)N1O (centres undefined)	/	-0.6	4	/	/

The results go on:
SMILES	Arbovirus inh	RecA intein inh	Mtb betalactam	YopH inh	Mtb H37Rv	others
CCN1CCN(S(=O)(=O)c2ccc(Cl)c(C(=O)NC3CCCCC3)c2)CC1	/	-0.1	-12	/	/
O=C(Nc1ccccc1C(F)(F)F)c1cc(-c2ccco2)on1	/	0.1	63	/	/
O=C(Nc1ccc(Cl)cc1)Nc1nc(-c2ccccc2O)cs1	/	3.7	62	/	46%
Cc1ccc(-c2nc(C#N)c(NCc3ccco3)o2)cc1	-1	1.5	38	-37	4%
COc1ccc(-c2nc(Cn3c(SCc4cccc(F)c4)nc4ccncc43)c(C)o2)cc1OC	-9	0.4	56	-22	55%	Arbovirus inh repeat=-6
O=C(CN1CCN(c2ccc(O)cc2)CC1)Nc1cc(S(=O)(=O)N2CCOCC2)ccc1Cl	-13	0.1	-2	-19	-2%
Cc1cccc(-c2n[nH]c(=S)n2-c2ccccc2)c1[N+](=O)[O-]	0	-2.4	-2	-42	3%
Cc1c(/C=N\NC(=O)C2(C)CC2(Cl)Cl)cnn1C (centres undefined)	0	-1.4	-4	-25	7%
NC(=O)c1cc(S(=O)(=O)NCCc2ccccc2)cs1	/	2.4	6	/	/
CCc1ccc(NC(=O)N(Cc2ccco2)C(C)c2cccs2)cc1 (centres undefined)	0	0.7	-5	-59	0%
CCCCCOc1ccc(C(=O)CCC(=O)Nc2ccc(NC(C)=O)cc2)cc1	/	1.8	3	/	/
COc1cc(/C=N/NC(N)=O)ccc1OC(=O)c1cccs1	1	/	3	/	3%
COc1cccc(N/C=C/C(=O)c2ccc(OC)c(OC)c2)c1	/	-2.6	2	/	/
COc1ccc(NC(=O)CCc2ccccc2)cc1NC(=O)c1ccco1	-7	-0.8	87	-3	-2%
CNS(=O)(=O)c1cccc(C(=O)OCC(=O)NC(C)CCc2ccccc2)c1 (centres undefined)	/	1.5	-1	/	/
COc1ccc(NC(=O)Nc2cc(C(=O)O)ccc2N2CC3CC(C2)c2cccc(=O)n2C3)c(OC)c1 (centres undefined)	/	1.6	-2	/	/
Cc1cccc(NC(=O)C(=O)N/N=C/c2ccncc2)c1	1	-0.1	20	/	?
Cc1nn(C)c(C)c1CN(C)S(=O)(=O)c1ccc2ccccc2c1	17	/	-1	32	1%
CCOc1nc(Nc2ccc([N+](=O)[O-])cc2)nc(NC(C)(C)C)n1	-1	-3.2	2	-34	8%

An excerpt taken from the entries so far, for reference:
SMILES	Arbovirus inh	RecA intein inh	Mtb betalactam	YopH inh	Mtb H37Rv	others
Cc1c(/C=N\NC(=O)C2(C)CC2(Cl)Cl)cnn1C (centres undefined)	0	-1.4	-4	-25	7%
NC(=O)c1cc(S(=O)(=O)NCCc2ccccc2)cs1	/	2.4	6	/	/
CCc1ccc(NC(=O)N(Cc2ccco2)C(C)c2cccs2)cc1 (centres undefined)	0	0.7	-5	-59	0%
CCCCCOc1ccc(C(=O)CCC(=O)Nc2ccc(NC(C)=O)cc2)cc1	/	1.8	3	/	/
COc1cc(/C=N/NC(N)=O)ccc1OC(=O)c1cccs1	1	/	3	/	3%

6 entries picked at random from those above:
SMILES	Arbovirus inh	RecA intein inh	Mtb betalactam	YopH inh	Mtb H37Rv	others
COc1cccc(N/C=C/C(=O)c2ccc(OC)c(OC)c2)c1	/	-2.6	2	/	/
Cc1cccc(NC(=O)C(=O)N/N=C/c2ccncc2)c1	1	-0.1	20	/	?
COc1ccc(NC(=O)CCc2ccccc2)cc1NC(=O)c1ccco1	-7	-0.8	87	-3	-2%
COc1cc(/C=N/NC(N)=O)ccc1OC(=O)c1cccs1	1	/	3	/	3%
COc1ccc(-c2nc(Cn3c(SCc4cccc(F)c4)nc4ccncc43)c(C)o2)cc1OC	-9	0.4	56	-22	55%	Arbovirus inh repeat=-6
CNS(=O)(=O)c1cccc(C(=O)OCC(=O)NC(C)CCc2ccccc2)c1 (centres undefined)	/	1.5	-1	/	/
